# BJeLR viability: BJeLR cell viability loss. BJeLR (HRASV12) viability, CellTiter-Glo ATP luminescence, 48 h; reference of the scale not given here. inhibition, % (concentration not given with the values). 0.17% of 300,000 active. AID 1554;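 active = replicate mean above 50%; inconclusive = above 50% but judged a plate artefact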;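 also: 50 nL library stock added to about 25 µL; numbers are from one replicate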
# ugtP null kill: growth inhibition of S. aureus ugtP deletion strain | S. aureus RN4220 ugtP deletion, OD600 growth, 16 h; some inactives read as strong as hits | growth inhibition, % (no concentration beside the values) | 0.54% of 330,000 active | AID 1259309;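 active = z-score under -3 and OD600 up to 0.15 on both plates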;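 also: plate controls were untreated wells for no effect and antibiotic for full effect; wells of about 80 µL received 100 nL stock; the first replicate is given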
# Autofluor counter: counter-screen for toxin protease inhibitors: compound fluorescence. compound autofluorescence counterscreen, microsphere flow cytometry; active compounds read high. fluorescence intensity (concentration not given with the values). 3.1% of 360,000 active. AID 624483;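 active = at least 3 SD above the mean of all compounds, about 16000 in these data; inconclusive = too few beads counted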;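 also: 100 nL of 1 mM stock went into each well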
# PrP 5UTR inh: inhibition of PrP 5' UTR reporter expression; cell-based PrP 5' UTR mRNA reporter, plate reader; 0.35% of 340,000 active; inhibition, % (test concentration not listed);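 active = every replicate at 50% or more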;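 also: 0 = median of the neutral control wells; tested in H4 reporter cells; numbers are from one replicate; inactives centre near -14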
# RN4220 kill: kills Staphylococcus aureus RN4220; S. aureus RN4220 growth, OD600, 16 h; inhibition, % (concentration not given with the values); 0.33% of 330,000 active;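 active = z-score of -3 or lower and OD600 up to 0.18 on both plates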;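 also: plate controls were untreated cells for no effect and reference antibiotic for full effect; stock transfer was 100 nL into about 80 µL; one replicate is shown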
# Mtb hypoxia rep: Mtb hypoxia fluorescent reporter inhibition; 0.1% of 300,000 active; fluorescence inhibition, % (no concentration beside the values); AID 1159583; M. tuberculosis hypoxia-regulated fluorescent reporter, fluorescence;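 active = 35 to 45% if threefold the growth effect, above 45% if 1.5-fold the growth effect; inactive = the rest, general growth blockers included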;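 also: wells of about 50 µL received 100 nL stock; 0% = vehicle wells and 100% = reference inhibitor wells; whole bacteria with a GFP reporter of the hypoxia response; strong numbers were not always called active; many hits fall short of the cut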
# Mtb hypoxia rep growth: also measured in Mtb hypoxia rep; calls as there; growth inhibition, %; measured here: M. tuberculosis growth (absorbance);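 0% = vehicle and 100% = reference antibiotic; read after six days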
# * = called active by the depositor; ? = inconclusive; nt = not tested or not shown; & = joins results of further samples. No enrichment for hits, and some 4% of all compounds hit somewhere here.
SMILES,BJeLR viability,ugtP null kill,Autofluor counter,PrP 5UTR inh,RN4220 kill,Mtb hypoxia rep,Mtb hypoxia rep growth
CSC(SC)=C(C(C)=O)C(=O)c1ccc(C)cc1,13,4,2491,6,1.8,11,4
COc1ccc(C(CNC(=O)c2cc3ccccc3cc2O)N2CCOCC2)cc1 (stereo unspecified),-12,0,nt,-8,2.5,-5,4
CC(=O)N(C(C)=O)c1c(N2CCOCC2)c2ccccc2oc1=O,7,16,21404*,-4,6.2,3,0
CCc1ccc(NC(=O)CCCNC(=O)Cn2cnc3sc(C)c(C)c3c2=O)cc1,14,3,4313,-2,6.0,9,-2
O=C(COC(=O)c1ccccc1Br)NC(=O)NCc1ccccc1,nt,-1,nt,nt,9.6,12,10
N=c1n(CCc2ccccc2)c2ccccc2n1Cc1ccccc1F,5,-14,2482,-25,-4.1,4,4
OCC1CN1C1CCCCC1 (stereo unspecified),nt,-4,4349,-25,0.2,10,4
Cc1cccnc1NC(=O)c1ccccc1-c1ccccc1C(=O)Nc1ncccc1C,3,3,7484,-13,-1.5,6,7
COc1ccc(OC)c(C2CC(=O)N3CN(c4ccccc4)CSC3=C2C#N)c1 (stereo unspecified),-15,3,7066,-60,-14,5,5
COc1ccccc1CN1CC(C(=O)N2CCCCO2)CCC1=O (stereo unspecified),-6,3,5138,-73,1.9,1,1
CCOC(=O)C1=C(C)Nc2sc(C(=O)c3ccc(C)cc3)c(N)c2C1c1ccc(C(=O)OC)cc1 (stereo unspecified),3,27,6601,-7,-5.9,0,9
COc1ccc(NC(=O)c2ccc(CN3CCN(c4ccccc4)CC3)cc2)cc1OC,nt,-11,2609,-16,6.0,nt,nt
O=C(O)CCn1c(=O)oc2cc(S(=O)(=O)N3CCCC3)ccc21,nt,1,3844,-11,5.6,16,5
CCN(CC)CCCNC(=O)c1cn(CCOC)c(=O)c2c1c1ccccc1n2C,nt,1,10054,-26,-1.6,5,9
O=C(CCNC(=O)C1CCN(S(=O)(=O)c2ccc(F)cc2)CC1)NCc1ccc(Cl)cc1,14,-1,4912,3,-3.1,-3,-9
Clc1ccc(CCNCc2ccncc2)c(Cl)c1,0,-1,4119,-19,1.9,5,1
CCn1c(SCC(=O)Nc2nc(-c3ccc(C)cc3)cs2)nnc1-c1ccccc1,-7,4,6244,-5,-8.6,-14,5
COC(=O)C1=C(C)N(C)C(C)=C(C(=O)OC)C1c1ccsc1,-11,2,4588,-21,-0.1,nt,nt
CC1CCCCN1C(=O)Cn1cc(C=C2C(=O)N(C)C(=O)N(C)C2=O)c2ccccc21 (stereo unspecified),-11,5,6194,-25,2.4,7,-1
Cc1ccccc1C(=O)Nc1ccnn1C1CCN(C(=O)c2cnsn2)CC1,4,7,4580,1,0.8,8,-1
CC(C)(C)OC(=O)NCCCC[C@H](NC(=O)[C@H](Cc1c[nH]c2ccccc12)NC(=O)OCc1ccccc1)C(=O)O,6,9,3589,-23,4.1,-11,-5
Cc1cc(C)c(C#N)c(SCCS(=O)(=O)c2ccc(Cl)cc2)n1,-5,-1,3329,-1,7.6,0,2
COc1cc(C=NNS(=O)(=O)c2ccc(Br)cc2)ccc1O,nt,4,nt,nt,7.9,15,6
CCCCCCn1c(O)c(C(C)=NC)c(=O)[nH]c1=O,-4,8,9932,-11,3.4,13,4
CC(=O)OC1CC2(C)C(=O)CCC2C2CCc3cc(O)ccc3C12 (stereo unspecified),-6,4,6195,1,4.0,9,4
Cn1c(-c2ccc(Br)cc2)cnc1NCc1ccc(C#N)cc1,-2,-6,4253,12,-3.0,-15,6
COCCn1cnc2c1c(=O)n(CC(=O)O)c(=O)n2Cc1ccccc1,4,4,3502,-32,0.8,14,9
CCCCOc1ccc(C(=O)NCc2ccccn2)cc1,-5,-11,3202,-25,-14,18,5
CCC(C)[C@H]1CN=C(N)N1CCCc1cc(OC)c(OC)c(OC)c1 (stereo partly specified),2,nt,3932,-5,nt,nt,nt
CC(C)(C)OC(=O)NCCC(=O)NN=Cc1ccc2nccnc2c1,nt,4,nt,nt,-1.5,3,-4
O=C(COc1ccc2ccccc2c1)Nc1ccc(Br)cc1C(=O)O,-1,nt,6086,-14,nt,nt,nt
C/C(N)=C(/C#N)C(=O)CSc1nnc(-c2ccc(OC(F)F)cc2)o1,10,-15&-8,2814&12668,-53&-147,3.1&9.2,7&17,0&7
COc1ccc(C(=O)N[C@H](C(=O)NCCCSc2ccccc2)C(C)C)cc1,nt,0,3077,-2,0.1,-1,2
COc1ccc(NC2CC(=O)N(c3cc([N+](=O)[O-])ccc3C)C2=O)cc1 (stereo unspecified),28,4,3266,-6,10,-6,-6
CCN(C[C@H]1N[C@@](Cc2ccccc2)(C(=O)OC)[C@H]2C(=O)N(C)C(=O)[C@@H]12)S(=O)(=O)c1ccc(OC(F)(F)F)cc1,nt,-2,3725,-15,3.7,0,8
COc1ccc(NC(=O)CN(C)S(=O)(=O)c2cnc[nH]2)cc1OC,-1,1,5517,-5,3.0,7,1
COc1nc(N2CCOCC2)nc(C)c1[N+](=O)[O-],6,3,2105,-18,5.2,8,2
Cc1noc(C)c1S(=O)(=O)N1CCC(C(=O)c2ccccc2)CC1,0,8,4401,-14,6.2,0,7
Nc1nc(N)nc(-c2cccc(Cl)c2Cl)n1,nt,1,3973,-17,5.3,8,16
O=C(c1ccco1)N1CCN(c2nc(C3CC3)nc3c2nnn3Cc2ccccc2Cl)CC1,-4,15,4424,-9,-5.7,nt,nt
Nc1nonc1-n1nnc(C(=O)N/N=C/c2cccc(Cl)c2)c1CSc1ccc(Cl)cc1,5,nt,3179,-23,nt,nt,nt
O=C(COC(=O)Cc1ccc(F)cc1)NC(=O)c1ccccc1,-3,4,nt,-12,4.3,3,7
COc1ccccc1N1CCN(N=Cc2ccc([N+](=O)[O-])cc2)CC1,nt,17,nt,nt,7.8,5,-2
COCCCN(C(=O)c1cc(Cl)nc2ccccc12)c1c(N)n(Cc2ccccc2)c(=O)[nH]c1=O,nt,2,?,-11,-2.5,-2,2
COc1ccc(C(=O)N=c2sc3ccccc3n2C)cc1OC,nt,1,4399,-55,7.1,-11,-7
CCNc1ccc(C(=O)OCC)cc1NC(=O)c1cc(S(=O)(=O)N2CCOCC2)ccc1C,-3,2,4978,3,-0.6,-4,-1
COc1ccc(NC(C)=O)cc1NC(C)C(=O)Nc1cc(C(F)(F)F)ccc1N1CCOCC1 (stereo unspecified),-3,-5,9598,-14,1.7,4,-6
OCCN1CCN(Cc2ccc3ccccc3c2)CC1,-5,18,3730,-13,5.4,6,13
CCOc1ccc(NS(=O)(=O)c2cc(C(=O)NCCCN3CCOCC3)ccc2C)cc1,nt,-1,3687,8,-2.1,-7,5
Cc1cccc(C)c1OCCOC(=O)c1n[nH]c2ccccc12,3,6,4827,-8,-2.3,4,9
CCCC(OS(N)(=O)=O)C(Cc1ccccc1)C(=O)OCC (stereo unspecified),nt,-7,nt,nt,6.6,4,2
CCN(CCCNC(=O)CN(C)S(=O)(=O)c1cccc2nsnc12)c1cccc(C)c1,-5,5,3978,0,1.3,7,3
CC1(C)CC(NCc2ccncc2)CC(C)(C)N1,-6,5,3348,-29,0.6,7,4
CC1CCC(=O)N(CCC#N)CC1 (stereo unspecified),8,-6,3924,-31,-15,8,6
CCN(C(=O)c1cn(CC)c(=O)c2cc(OC)c(OC)cc12)c1ccccc1C,-6,7,3062,-13,-0.9,nt,nt
O=[N+]([O-])c1cc(S(=O)(=O)N2CCCC2)ccc1NN=C1CCCC1,1,-1,2487,13,5.0,6,5
O=C(CCn1c(=O)c2cccn2c2ccc(F)cc21)NCc1cccc(F)c1,-9,6,5772,-9,0.8,-6,-3
Cc1cccc(OCC(=O)NCC(=O)NN=Cc2cccnc2)c1,nt,3,nt,nt,1.4,2,11
CN(C(=O)c1ccccc1)C1c2c(ccc3ccccc23)OCC1CO (stereo unspecified),8,6,3863,-16,1.9,5,-3
O=C(Nc1nccs1)c1cccc(NC(=O)C2CC2)c1,-4,-20,6218,5,3.0,9,23

# Pulled by compound from the entries so far, 7 records:
SMILES,BJeLR viability,ugtP null kill,Autofluor counter,PrP 5UTR inh,RN4220 kill,Mtb hypoxia rep,Mtb hypoxia rep growth
COc1ccc(NC(=O)c2ccc(CN3CCN(c4ccccc4)CC3)cc2)cc1OC,nt,-11,2609,-16,6.0,nt,nt
COc1ccccc1CN1CC(C(=O)N2CCCCO2)CCC1=O (stereo unspecified),-6,3,5138,-73,1.9,1,1
CCn1c(SCC(=O)Nc2nc(-c3ccc(C)cc3)cs2)nnc1-c1ccccc1,-7,4,6244,-5,-8.6,-14,5
N=c1n(CCc2ccccc2)c2ccccc2n1Cc1ccccc1F,5,-14,2482,-25,-4.1,4,4
O=C(COc1ccc2ccccc2c1)Nc1ccc(Br)cc1C(=O)O,-1,nt,6086,-14,nt,nt,nt
O=C(O)CCn1c(=O)oc2cc(S(=O)(=O)N3CCCC3)ccc21,nt,1,3844,-11,5.6,16,5
COc1ccc(C(=O)N=c2sc3ccccc3n2C)cc1OC,nt,1,4399,-55,7.1,-11,-7

# Next part
SMILES,BJeLR viability,ugtP null kill,Autofluor counter,PrP 5UTR inh,RN4220 kill,Mtb hypoxia rep,Mtb hypoxia rep growth
O=C(NC(=S)N1CCc2ccccc21)C1CCC1,1,3,4095,-20,0.5,0,4
Cc1cc(NS(=O)(=O)c2ccc(NC(=O)C(C(C)C)N3C(=O)c4ccccc4C3=O)cc2)nc(C)n1 (stereo unspecified),-5,6,8668,-6,3.6,1,2
Cc1ccc2cc(CCNC(=O)CCCc3ccccc3)c(=O)[nH]c2c1,-8,-3,5085,-24,-0.3,1,-9
COc1ccc(NC(=O)CCS(=O)(=O)c2ccc3c(c2)NC(=O)C(C)S3)cc1OC (stereo unspecified),-6,4,5532,-28,1.8,8,5
CC(=O)NC(CC(=O)NNC(=O)c1cc2ccccc2cc1O)c1ccccc1 (stereo unspecified),-1,3,4974,-10,4.5,10,12
O=C(c1ccc2nc(-c3ccco3)c(-c3ccco3)nc2c1)N1CCN(c2ccccc2)CC1,-2,-3,9264,-16,2.1,4,8
CN(CC(=O)Nc1ccc(S(=O)(=O)N2CCCC2)cc1)Cc1ccc(Cl)cc1Cl,-5,-8,2056,0,-11,-2,-5
CCOC(=O)c1[nH]cnc1C(=O)Nc1ccc([N+](=O)[O-])cc1,-12,7,3030,-8,1.5,7,-3
O=C(CSc1nc2c(sc3ccccc32)c(=O)n1CCCN1CCCC1)NCC1CCCO1 (stereo unspecified),5,-10,6545,-33,5.3,13,4
O=C(COC(=O)c1sc2cc(Cl)ccc2c1Cl)Nc1ncc(Cl)cc1Cl,-10,-15,nt,nt,-1.0,1,6
Cc1cc(C)n2c(SCC(=O)N3CCN(S(=O)(=O)c4ccc(Cl)cc4)CC3)nnc2n1,13,5,4063,-8,4.6,nt,nt
CC1(C)CC(=O)C=C(NCCc2ccccc2)C1,1,6,3028,-8,4.4,5,1
Cc1cc(C)c(CN2CCC(CO)(CCOc3ccccc3)CC2)cc1C,5,2,5013,-10,4.0,4,9
O=C(O)c1ccc(NN=CC2=C(N3CCOCC3)/C(=C\c3ccccc3)CC2)cc1,nt,2,nt,nt,12,-10,4
COc1ccc(S(=O)(=O)Nc2cccc(-c3ccc4nncn4n3)c2)cc1F,19,8,1854,-30,4.0,6,6

# Structures listed so far that have a nitro group on carbon (5):
SMILES,BJeLR viability,ugtP null kill,Autofluor counter,PrP 5UTR inh,RN4220 kill,Mtb hypoxia rep,Mtb hypoxia rep growth
COc1ccc(NC2CC(=O)N(c3cc([N+](=O)[O-])ccc3C)C2=O)cc1 (stereo unspecified),28,4,3266,-6,10,-6,-6
COc1nc(N2CCOCC2)nc(C)c1[N+](=O)[O-],6,3,2105,-18,5.2,8,2
COc1ccccc1N1CCN(N=Cc2ccc([N+](=O)[O-])cc2)CC1,nt,17,nt,nt,7.8,5,-2
O=[N+]([O-])c1cc(S(=O)(=O)N2CCCC2)ccc1NN=C1CCCC1,1,-1,2487,13,5.0,6,5
CCOC(=O)c1[nH]cnc1C(=O)Nc1ccc([N+](=O)[O-])cc1,-12,7,3030,-8,1.5,7,-3

# Screening results as filed in PubChem.
